GIV Gai3 FP: GIV-Galpha-i interaction inhibition; Galpha-i3/FITC-GIV peptide fluorescence polarization, 90 min; active compounds read low; scaled: aluminum fluoride 0%, vehicle 100%; percent of control (FP), % (test concentration not listed); 210,000 compounds, 0.42% hits; AID 1224905;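 active means replicate mean at 85% of control or lower, very high polarization wells dropped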;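 further: lower values mean more displacement of the GIV peptide from Galpha-i3; wells of about 15 µL received 100 nL stock; the first replicate is given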
Target sequence (P08753 whole entry, looked up): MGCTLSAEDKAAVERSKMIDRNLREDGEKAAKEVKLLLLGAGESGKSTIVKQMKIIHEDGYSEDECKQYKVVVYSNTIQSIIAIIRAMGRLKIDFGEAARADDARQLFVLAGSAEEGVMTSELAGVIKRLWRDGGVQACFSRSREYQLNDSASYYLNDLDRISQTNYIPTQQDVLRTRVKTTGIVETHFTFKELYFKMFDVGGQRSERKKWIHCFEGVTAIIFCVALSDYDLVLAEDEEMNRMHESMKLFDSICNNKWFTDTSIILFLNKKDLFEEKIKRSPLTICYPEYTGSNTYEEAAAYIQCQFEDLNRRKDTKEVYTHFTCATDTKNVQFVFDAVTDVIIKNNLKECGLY
HCMV UL50-53 inh: inhibitors of HCMV UL50-UL53 nuclear egress complex interaction; 190,000 compounds, 0.15% hits; HTRF UL50-UL53 interaction, normalized percent inhibition; inhibition, % (test concentration not listed); AID 1918969;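 active means both replicates at 50% or more, plus weaker picks with an unusually low signal ratio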;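 further: stock transfer was 100 nL into about 20 µL; 0% = negative control wells and 100% = wells with untagged competitor protein; inactives centre near -12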
Numbers without * were called inactive; · = no result given; & = joins results of further samples.

No.	Molecule	GIV Gai3 FP	HCMV UL50-53 inh
1	C=CCOC(=O)COc1cc(C)cc2oc(=O)c3c(c12)CCCC3	107.8	·
2	O=C(Nc1nccs1)c1cccn(Cc2ccccc2Cl)c1=O	106.4	·
3	Cc1cccc(CN2CC=C(c3noc(CCC(=O)Nc4ccc(F)cc4)n3)CC2)c1	105.9	·
4	C=CCOC(=O)C1=C(N)OC(C)=C(C(=O)OC(C)(C)C)C12C(=O)Nc1ccccc12 (centres undefined)	99.8	·
5	CC(Cc1ccccc1)NCCC(c1ccccc1)c1ccccc1 (centres undefined)	·	-2.1
6	OC(Cc1ccncc1)C(Cl)(Cl)Cl (centres undefined)	·	-9.6
7	CC(C)[C@@]12OC1C1O[C@]13[C@]1(OC1C[C@@H]1C4=C(CC[C@@]13C)C(=O)OC4)C2O (some centres undefined)	·	-14.8
8	CN1Cc2ccccc2[C@@H]2c3cccc4[nH]cc(c34)C[C@H]21	·	-23.9
9	C[C@]12CCC(=O)C=C1CCC1C2CC[C@@]2(C)C1CC[C@]2(C)O (some centres undefined)	·	-35.2
10	CCCCC/C=C\C/C=C\C/C=C\C/C=C\CCCC(=O)Nc1cccc(O)c1	·	-34.8&-34.8
11	Fc1ccc(C2NCCc3[nH]cnc32)cc1 (centres undefined)	·	-11.2
12	COc1cc(-n2c(=S)[nH]c3ccccc3c2=O)c(Cl)cc1Cl	·	-0.5
13	CCCCn1c(=O)c(C(=O)NC(C)c2ccccc2)c(O)c2ccccc21 (centres undefined)	·	-11.3
14	COc1ccc(NC2=NCCS2)cc1	·	-16.5
15	CCCCC/C=C\C/C=C\C/C=C\CCCCCCC(=O)NCCO	·	-20.5&-20.5&-17.2
16	c1cc(N2CCNCC2)c2cnccc2c1	·	-18.2&-18.2
17	N#C/C(=C\c1ccc(O)c(O)c1)C(N)=S	·	-82.3
18	CCCCC/C=C\C/C=C\C/C=C\C/C=C\CCCCOC(CO)CO	·	-8.9&-8.9
19	CN1C2C[C@H](OC(=O)[C@H](CO)c3ccccc3)C[C@H]1[C@@H](O)C2	·	-68.8
20	CCCC[N+]1(C)[C@@H]2CC(OC(=O)C(CO)c3ccccc3)C[C@H]1[C@@H]1O[C@@H]12 (some centres undefined)	·	1.1
21	CO[C@H]1C=C2CCN(C)[C@H]2C2c3cc4c(cc3C(=O)O[C@@H]21)OCO4 (some centres undefined)	·	-26.4
22	CCCCCCC(=O)CCCCCC/C=C/C[C@@H](O)[C@H](O)[C@@](N)(CO)C(=O)O	·	-9.0&-9.0
23	Fc1cc(F)c2c(c1)[C@H]1C=CC[C@@H]1C(c1cccnc1)N2 (some centres undefined)	·	-13.1
24	c1cc(N2CCNCC2)c2cc[nH]c2c1	·	-18.5&-18.5
25	CNCCc1cnc[nH]1	·	-10.7
26	COc1ccc2[nH]c3c(c2c1)CCN=C3C	·	-73.5
27	Clc1ccc(C(OCCN2CCCCC2)c2ccccc2)cc1 (centres undefined)	·	-9.9
28	c1cncc(C2N=C(c3cnccn3)NN2)c1 (centres undefined)	·	-66.9
29	CC(C)(C)c1ccc2ccccc2[o+]1	·	-21.9
30	CCOC(=O)CC(SP(=S)(OC)OC)C(=O)OCC (centres undefined)	·	-10.8
31	CC(=O)N1CC(=O)Nc2ccc(C)cc2C1c1ccccc1 (centres undefined)	·	4.0
32	CCCCC[C@@H](/C=C/C=C\CCCCCCCC(=O)O)OO	·	-7.2
33	CCNC(=O)CC1N=C(c2ccc(Cl)cc2)c2cc(OC)ccc2-n2c(C)nnc21 (centres undefined)	·	4.2
34	O=C1NC(=O)C(=Cc2ccc(-c3ccc(S(=O)(=O)N4CCOCC4)cc3)o2)C(=O)N1	·	-21.3
35	O=S(=O)(O)c1cc(O)ccc1O	·	0.5&-22.2
36	CO[C@H](C)C(O)(C(=O)OCC1=CCN2CC[C@H](O)[C@@H]12)C(C)C (some centres undefined)	·	-16.4
37	COc1ccc2c(c1O)-c1c(OC)c(OC)cc3c1[C@H](C2)N(C)CC3	·	-23.7
38	Oc1ccc2c3c1OC1C(O)CC[C@@]4(O)C(C2)N(CC2CCC2)CC[C@]314 (some centres undefined)	·	-62.4
39	CN(C(=O)Cc1ccc(Cl)c(Cl)c1)[C@H](CN1CCCC1)c1ccccc1	·	-6.3
40	N[C@]1(C(=O)O)CC[C@@H](C(=O)O)C1 (racemic)	·	7.2
41	CN(C)CCc1ccc(O)cc1	·	-0.1
42	CCCCC/C=C\C/C=C\C/C=C\C/C=C\CCCC(=O)OCCN	·	-3.3&-3.3
43	O=C(CN1C(=O)CCC1=O)Nc1ccc(Cl)cc1C(=O)c1ccccc1	·	-13.2
44	O=C(O)C1=CCCN(CCOC(c2ccc(C(F)(F)F)cc2)c2ccc(C(F)(F)F)cc2)C1	·	-7.2
45	N#CC(c1c[nH]c2ccccc12)N1CCCCCC1 (centres undefined)	·	-1.6
46	N#CC1(NCCc2ccccc2)CCCCC1	·	7.5
47	Cc1[nH]nc2ccc(-c3cncc(OCC(N)Cc4c[nH]c5ccccc45)c3)cc12 (centres undefined)	·	-0.1&8.7&-0.1&7.6&-8.8&-8.9
48	Cc1o[nH]c(=O)c1C[C@H](N)C(=O)O	·	-0.4
49	CC1CCC(C(C)C)C(OP(N)(=O)c2ccccc2)C1 (centres undefined)	·	-1.3
50	COc1ccc2c(c1)[C@]13CCCCC1C(C2)N(C)CC3 (some centres undefined)	·	-48.3

Next part.
No.	Molecule	GIV Gai3 FP	HCMV UL50-53 inh
51	N=C1c2ccccc2CN1c1ccc2c(c1)OCCO2	·	5.5
52	CCCCC/C=C\C/C=C\C/C=C\C/C=C\CCCC(=O)NCCOP(=O)(O)O	·	-18.6&-18.6
53	CCCCC/C=C\C/C=C\C/C=C\C/C=C\CCCC(=O)NCCCl	·	-9.7&-9.7
54	CCN(CC)CCO[C@H]1CC[C@@]2(C)C(=CC[C@@H]3[C@@H]2CC[C@]2(C)C(=O)CC[C@@H]32)C1	·	-3.0&-28.9&-28.9
55	Cc1ccc(S(=O)(=O)Nc2ccc(C(=O)NCCN(C)C)cc2)cc1	·	1.1&2.2
56	C=C(C)[C@H]1O[C@H]2CC[C@@]3(C)[C@@](O)(CC[C@H]4[C@@H]5OC(C)(C)[C@H]6C[C@@H]7C(=C)Cc8c(Cl)cc9[nH]c(c5c9c8[C@@]76O)[C@@]43C)[C@]23O[C@@H]3[C@H]1O	·	-15.0
57	CCc1cccc(CC)c1NC1=NCCN1	·	2.0
58	C=CCN=C=S	·	-49.6
59	CCCCCCC[n+]1ccc(-c2cc[n+](CCCCCCC)cc2)cc1	·	-99.1
60	CCCC[C@@H](C)[C@@H](OC(=O)C[C@@H](CC(=O)O)C(=O)O)[C@H](C[C@@H](C)C[C@H](O)CCCC[C@@H](O)C[C@H](O)[C@H](C)N)OC(=O)C[C@H](CC(=O)O)C(=O)O	·	1.4
61	C[C@H](NC[C@H](O)CP(=O)(O)CC1CCCCC1)c1ccc(Cl)c(Cl)c1	·	-7.9
62	Cc1nc(N2CCN(C)CC2)c(C#N)c(C)c1Br	·	2.2
63	CCC(=O)NCC(=O)Nc1ccc(Br)cc1C(=O)c1ccccc1	·	-19.2
64	COc1cc(CNC(=O)CCCCCCC(C)C)c(I)cc1O	·	-22.7&-22.7
65	COc1ccc(S(=O)(=O)N(CCO)c2ccccc2CN(C)CC=Cc2ccc(Cl)cc2)cc1	·	2.4
66	S=C=Nc1cccc(C2(N3CCCCC3)CCCCC2)c1	·	-5.5
67	Cc1ccccc1-n1c(Cn2ncc3c(N)ncnc32)nc2cccc(C)c2c1=O	·	8.9
68	N[C@@H](Cn1oc(=O)[nH]c1=O)C(=O)O	·	13.5
69	CCCC[C@@H](C)C(OC(=O)C[C@@H](CC(=O)O)C(=O)O)C(C[C@@H](C)C[C@H](O)CCCC[C@@H](O)C[C@H](O)[C@H](C)N)OC(=O)C[C@@H](CC(=O)O)C(=O)O (some centres undefined)	·	-13.2&-13.2
70	COC(=O)[C@@]1(O)CC2OC1(C)n1c3ccccc3c3c4c(c5c6ccccc6n2c5c31)C(=O)NC4 (some centres undefined)	·	-2.6
71	CNCC(O)c1ccc(O)c(OC)c1 (centres undefined)	·	-15.2
72	C[N+]1(C)C2CC[C@H]1CC(OC(=O)C(CO)c1ccccc1)C2 (some centres undefined)	·	-7.7
73	CCCCC/C=C\C/C=C\C/C=C\C/C=C\CCCC(=O)N[C@@H](CO)C(=O)O	·	-15.2&-15.2
74	CCC(=O)OC1CCC2C3CCC4CC(=O)CCC4(C)C3CCC12C (centres undefined)	·	-0.1
75	CCCCC/C=C\C/C=C\C/C=C\C/C=C\CCCC(=O)NCCCC(=O)O	·	-16.5&-16.5
76	COc1cc2c3cc1Oc1cc(ccc1O)C[C@@H]1c4c(cc(OC)c(O)c4Oc4cccc(c4)C[C@@H]3N(C)CC2)CC[N+]1(C)C	·	-3.8
77	O=C1CCCCC1CN1CCCCC1 (centres undefined)	·	9.5&-2.0
78	C(#CCN1CCCC1)CN1CCCC1	·	-2.4
79	CC(C)(Cc1c[nH]c2ccc(Cl)cc12)NCCOc1ccccc1OCC1CC1	·	1.2
80	C=C[C@]12CN(C)[C@@H]3[C@H]4COC(CC41)[C@]1(C(=O)Nc4ccccc41)[C@@H]32	·	-16.2

Grouped by structure, the compounds so far with four or more nitrogen atoms.
No.	Molecule	GIV Gai3 FP	HCMV UL50-53 inh
3	Cc1cccc(CN2CC=C(c3noc(CCC(=O)Nc4ccc(F)cc4)n3)CC2)c1	105.9	·
28	c1cncc(C2N=C(c3cnccn3)NN2)c1 (centres undefined)	·	-66.9
33	CCNC(=O)CC1N=C(c2ccc(Cl)cc2)c2cc(OC)ccc2-n2c(C)nnc21 (centres undefined)	·	4.2
47	Cc1[nH]nc2ccc(-c3cncc(OCC(N)Cc4c[nH]c5ccccc45)c3)cc12 (centres undefined)	·	-0.1&8.7&-0.1&7.6&-8.8&-8.9
62	Cc1nc(N2CCN(C)CC2)c(C#N)c(C)c1Br	·	2.2
67	Cc1ccccc1-n1c(Cn2ncc3c(N)ncnc32)nc2cccc(C)c2c1=O	·	8.9

The list goes on:
No.	Molecule	GIV Gai3 FP	HCMV UL50-53 inh
81	COc1cc(C(=O)OC2C[C@H]3CC[C@@H](C2)N3C)ccc1O (some centres undefined)	·	-7.9
82	CCCCCC[C@H]1C(=O)O[C@H](C)C(NC(=O)c2cccc(NC=O)c2O)C(=O)O[C@@H](C)[C@@H]1OC(=O)CC(C)C (some centres undefined)	·	-16.3
83	CCCN(C/C=C/I)C1CCc2ccc(O)cc2C1 (centres undefined)	·	2.8
84	COc1ccc(C(=O)c2c(C)n(CCN3CCOCC3)c3cc(I)ccc23)cc1	·	-4.5
85	CCN1C[C@]2(COC)CC[C@H](OC)[C@@]34C1[C@]1(OCO[C@@]15C[C@H](OC)[C@H]1C[C@@H]3[C@@H]5[C@H]1OC)[C@@H](O)[C@H]24	·	-11.9
86	CCOC(=O)CN1C(=O)CC(C[C@@H](O)C2C[C@@H](C)C[C@H](C)C2=O)CC1=O (some centres undefined)	·	-1.7
87	O=C1C2CCN(CC2)C1(CO)CO	·	-9.0&-22.0&-22.0&-17.4
88	O=c1ccc2cc(OC3O[C@H](CO)[C@@H](O)[C@H](O)[C@H]3O)c(O)cc2o1 (some centres undefined)	·	-43.7
89	c1ccc(NC2=NCCCS2)cc1	·	-0.4
90	Ic1cncc(OC[C@@H]2CCN2)c1	·	-8.2

Entries of single compounds, quoted from the list. Values in the order: GIV Gai3 FP	HCMV UL50-53 inh
`COc1cc(C(=O)OC2C[C@H]3CC[C@@H](C2)N3C)ccc1O` (some centres undefined) as listed: ·	-7.9
`Ic1cncc(OC[C@@H]2CCN2)c1` as listed: ·	-8.2
`CCCN(C/C=C/I)C1CCc2ccc(O)cc2C1` (centres undefined) as listed: ·	2.8
`O=C1C2CCN(CC2)C1(CO)CO` as listed: ·	-9.0&-22.0&-22.0&-17.4
`c1ccc(NC2=NCCCS2)cc1` as listed: ·	-0.4

Next section
No.	Molecule	GIV Gai3 FP	HCMV UL50-53 inh
91	CCN1C[C@]2(COC)CC[C@H](O)[C@]34C1[C@H](C[C@H]23)[C@@]1(O)C[C@H](OC)[C@H]2C[C@@H]4[C@@H]1[C@H]2OC(C)=O	·	-22.9
92	C[C@]12NC(Cc3ccccc31)c1ccccc12	·	-15.1
93	COc1ccc(-n2nc(C(F)(F)F)cc2-c2ccc(Cl)cc2)cc1	·	-10.5
94	CCCCCOc1c(OC)ccc2cc(C(=O)NCc3ccc4c(c3)OCO4)c(=O)[nH]c12	·	0.9
95	CCCCCCCCCCCCCCCCOC[C@H](COP(=O)([O-])OCC[N+](C)(C)C)OC(C)=O	·	-9.8&-9.8&-15.1
96	CCOP(=S)(OCC)Oc1ccc2c(C)c(Cl)c(=O)oc2c1	·	-69.9
97	CC(C)(C)C(=O)C(Oc1ccc(Cl)cc1)n1cncn1 (centres undefined)	·	-16.6
98	Cc1nc(N)sc1CCN	·	-12.4
99	c1cc2ccsc2c(N2CCNCC2)n1	·	-23.5&-23.5
100	O=C1Nc2ccccc2C2(CCN(CCc3ccc(C(F)(F)F)cc3)CC2)O1	·	5.3
101	CC1CCCC=C[C@@H]2CC(O)C[C@H]2C(O)C=CC(=O)O1 (some centres undefined)	·	-2.7
102	C=CCN1CC[C@]2(C)c3cc(O)ccc3CC1[C@@H]2C	·	-9.0
103	Cc1ccc(C[N+](C)(C)C)o1	·	-2.3
104	C=C1C/C(=C/C)C(=O)O[C@@H]2CCN3CC=C(COC(=O)[C@]1(C)O)[C@H]23	·	-24.5
105	C=C1[C@@H](O)[C@@H]2O[C@@]3(CCC2O[C@@H]1[C@@H](O)C[C@H](C)C1O[C@@]2(CCCCO2)CC[C@H]1C)CC[C@H](/C=C/[C@@H](C)[C@@H]1CC(C)=C[C@@]2(O[C@H](C[C@@](C)(O)C(=O)O)CC[C@H]2O)O1)O3 (some centres undefined)	·	5.7

Compound activity as filed in PubChem.

Some of the compounds tested; rates above refer to the full screens.
